Vaccinia inh: Vaccinia orthopox stage-specific inhibition; AID 1053133; activity change (mCherry), % (no concentration beside the values); hit rate 0.01% among 89,000; Vaccinia-infected cells, mCherry/Venus stage reporter fluorescence; hits give low values; some inactives read as strong as hits;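 active = mCherry past -33% and 40 or more points under the early reporter, replicates agreeing; inconclusive = past -33% without that gap or agreement; tested in A549 cells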;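 also: scaled between vehicle wells and reference inhibitor wells; 23 nL library stock went into each well; one replicate is shown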
Vaccinia inh Venus: second read-out of Vaccinia inh, no call of its own (marks repeat the call); activity change (Venus), %; measured here: Venus reporter, other viral stage;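 negative = less Venus signal; first of two replicates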
* = called active by the depositor; & = joins results of further samples. The list is partial. The share of hits here may be higher or lower than overall.

For COC(=O)[C@@H]1[C@@H](CO)[C@@H]2Cn3c(ccc(-c4ccncc4)c3=O)[C@@H]2N1CC1CCCCC1 the results were Vaccinia inh 1.5 and Vaccinia inh Venus 7.9.
`O=C(Nc1ccc(F)cc1)N1CC(=O)N2[C@H](CO)[C@@H](c3ccc(-c4cccc(F)c4)cc3)[C@H]2C1` gave Vaccinia inh inconclusive.
Screening O=C(C1CCCC1)N1CC[C@@H]2[C@H](CO)Nc3ccc(Br)cc3[C@@H]21 returned Vaccinia inh -2.7 and Vaccinia inh Venus 8.7.
Screening O=C(NCC[C@H]1CC[C@H](NC(=O)C2CCCC2)[C@H](CO)O1)c1ccc(F)cc1 returned Vaccinia inh -7.7 and Vaccinia inh Venus 2.7.
Screening C/C=C/c1ccc2c(c1)O[C@@H](CN(C)C(=O)NC1CCCCC1)[C@@H](C)CN([C@H](C)CO)S2(=O)=O returned Vaccinia inh -23.9 and Vaccinia inh Venus -26.1.
C[C@H](CO)N1C[C@H](C)[C@@H](CN(C)S(=O)(=O)c2ccccc2)Oc2ccc(NC(=O)CCC(F)(F)F)cc2CC1=O was read as Vaccinia inh -3.8 and Vaccinia inh Venus 3.2.
C[C@@H]1CN([C@@H](C)CO)C(=O)c2cc(NC(=O)Nc3ccc4c(c3)OCO4)ccc2O[C@@H](C)CCCCO[C@H]1CN(C)C(=O)Nc1ccc(C(F)(F)F)cc1 was read as Vaccinia inh -14.4 and Vaccinia inh Venus -11.8.
`O=C(Nc1ccc(F)cc1)N[C@H]1CC[C@H](CCNS(=O)(=O)c2ccccc2F)O[C@H]1CO` gave Vaccinia inh -11.2 and Vaccinia inh Venus -11.9.
For CCCNC(=O)N1C[C@H](C)[C@H](OC)CN(C)C(=O)c2ccc(NC(=O)CCC)cc2OC[C@H]1C the results were Vaccinia inh 8.9 and Vaccinia inh Venus 1.9.
C[C@@H]1CN([C@H](C)CO)C(=O)c2cccc(NC(=O)c3nc4ccccc4s3)c2O[C@@H]1CN(C)S(=O)(=O)c1ccc(F)cc1 was read as Vaccinia inh 6.8 and Vaccinia inh Venus 11.5.
CCS(=O)(=O)Nc1ccc2c(c1)C(=O)N(C)[C@@H]1CC[C@H](CC(=O)NCCOC)O[C@@H]1CO2 was read as Vaccinia inh 6.3 and Vaccinia inh Venus 0.0.
`C[C@@H]1CN([C@H](C)CO)C(=O)c2cc(NC(=O)Cc3cn(C)c4ccccc34)ccc2O[C@@H]1CN(C)Cc1ccc(C(=O)Nc2ccccc2N)cc1` gave Vaccinia inh 14.3 and Vaccinia inh Venus 2.6.
Screening C/C=C/c1ccc2c(c1)O[C@@H](CN(C)C(=O)Nc1ccc(C(F)(F)F)cc1)[C@@H](C)CN([C@@H](C)CO)S2(=O)=O returned Vaccinia inh inconclusive.
Screening C[C@@H]1CN([C@@H](C)CO)C(=O)Cc2cc(NS(=O)(=O)c3ccccc3)ccc2O[C@@H]1CN(C)Cc1ccccc1 returned Vaccinia inh -7.4 and Vaccinia inh Venus 0.3.
For O=C(N[C@@H]1CC[C@@H](CCNS(=O)(=O)c2ccc(Cl)cc2)O[C@H]1CO)c1cccnc1 the results were Vaccinia inh -7.7 and Vaccinia inh Venus -8.4.
Screening Cc1ccccc1-c1ccc2c(c1)O[C@H](CN(C)Cc1ccncc1)[C@H](C)CN([C@H](C)CO)S2(=O)=O returned Vaccinia inh inconclusive.
Screening COc1ccc(-c2ccc3c(c2)O[C@H](CN(C)CC2CCOCC2)[C@H](C)CN([C@H](C)CO)S3(=O)=O)cc1 returned Vaccinia inh -14.5 and Vaccinia inh Venus -15.7.
For Cc1ccc(-c2ccc(C3[C@H]4CNC[C@@H]3N4S(=O)(=O)c3ccccc3C)cc2)cc1 (stereo partly drawn) the results were Vaccinia inh -9.1&11.4 and Vaccinia inh Venus -1.2&-3.6.
Screening C[C@@H]1CCCCO[C@H](CN(C)S(=O)(=O)c2ccccc2)[C@@H](C)CN([C@@H](C)CO)C(=O)c2cc(NC(=O)Cc3ccccc3)ccc2O1 returned Vaccinia inh -8.8 and Vaccinia inh Venus -9.7.
CN(C)C(=O)C[C@@H]1C=C[C@@H](NC(=O)c2ccc(F)cc2)[C@H](CO)O1 was read as Vaccinia inh 19.6 and Vaccinia inh Venus -0.9.
Screening CN(C)C(=O)[C@H]1[C@H](CO)[C@H]2Cn3c(cccc3=O)[C@@H]1N2CC1CCOCC1 returned Vaccinia inh 6.4 and Vaccinia inh Venus -5.2.
For CCCC(=O)Nc1ccc2c(c1)C(=O)N(C)[C@H]1CC[C@H](CC(=O)NCCCN(C)C)O[C@H]1CO2 the results were Vaccinia inh 4.3 and Vaccinia inh Venus 5.7.
CC(=O)N(C)C[C@@H]1Oc2cc(-c3ccc(C#N)cc3)ccc2S(=O)(=O)N([C@H](C)CO)C[C@@H]1C was read as Vaccinia inh 9.6 and Vaccinia inh Venus 1.8.
`C[C@@H]1CN([C@H](C)CO)C(=O)c2cccc(NS(=O)(=O)c3ccc(F)cc3)c2O[C@@H]1CN(C)C(=O)Nc1cccc2ccccc12` gave Vaccinia inh 2.9 and Vaccinia inh Venus 11.4.
For CCCN(C)C[C@H]1OCCCC[C@H](C)Oc2ccc(NC(=O)C3CCCCC3)cc2C(=O)N([C@H](C)CO)C[C@H]1C the results were Vaccinia inh -4.7 and Vaccinia inh Venus -10.8.
Screening Cc1noc(C)c1NC(=O)Nc1ccc2c(c1)C(=O)N([C@@H](C)CO)C[C@H](C)[C@H](CN(C)C)OCCCC[C@H](C)O2 returned Vaccinia inh 2.7 and Vaccinia inh Venus 8.2.
N#C[C@H]1[C@@H](c2ccccc2C2=CCCC2)[C@@H](CO)N1C(=O)C1CC1 was read as Vaccinia inh inconclusive.
C[C@@H]1CN([C@H](C)CO)C(=O)c2cccc(NC(=O)c3cnccn3)c2O[C@H]1CN(C)S(=O)(=O)c1ccc(F)cc1 was read as Vaccinia inh -4.9 and Vaccinia inh Venus -9.4.
`CC(C)NC(=O)N(C)C[C@H]1Oc2cc(C#Cc3ccc(F)cc3)ccc2S(=O)(=O)N([C@H](C)CO)C[C@@H]1C` gave Vaccinia inh -20.1 and Vaccinia inh Venus -16.0.
For C=CCOC(=O)C1=C[C@H](c2ccc(Br)cc2)[C@@H](CCCO)[C@H](OCC)O1 the results were Vaccinia inh 0.3 and Vaccinia inh Venus -0.5.
Screening C[C@@H]1CN([C@@H](C)CO)C(=O)c2cc(NC(=O)Nc3ccc4c(c3)OCO4)ccc2O[C@@H](C)CCCCO[C@@H]1CN(C)C(=O)c1ccccc1 returned Vaccinia inh 15.9 and Vaccinia inh Venus 3.9.
For CO[C@@H]1CN(C)C(=O)c2ccc(NC(=O)Nc3ccc(F)cc3)cc2OC[C@H](C)NC[C@H]1C the results were Vaccinia inh 2.0 and Vaccinia inh Venus 3.9.
C[C@@H]1CN([C@@H](C)CO)S(=O)(=O)c2ccc(Br)cc2O[C@@H]1CN(C)CC1CCOCC1 was read as Vaccinia inh -10.0 and Vaccinia inh Venus -12.2.
`O=C(Nc1ccccc1F)N1[C@H](CO)[C@@H]2c3ccccc3NC[C@@H]21` gave Vaccinia inh -2.0 and Vaccinia inh Venus 10.7.
For CN(C)C(=O)[C@H]1[C@H](CO)[C@H]2Cn3c(ccc(C4=CCCC4)c3=O)[C@@H]1N2C(=O)c1ccccc1 the results were Vaccinia inh 0.5 and Vaccinia inh Venus 8.2.
Screening O=C(NC[C@H]1[C@H](c2ccccc2)[C@@H](CO)N1Cc1cccnc1)c1ccccn1 returned Vaccinia inh 10.5 and Vaccinia inh Venus 12.4.
C[C@@H]1CN([C@H](C)CO)C(=O)CCCn2cc(nn2)CO[C@@H]1CN(C)Cc1cccc(C(=O)O)c1 was read as Vaccinia inh 12.2 and Vaccinia inh Venus 5.2.
For C[C@@H]1CN([C@H](C)CO)C(=O)c2cc(C#CC3CCCC3)cnc2O[C@@H]1CN(C)C(=O)C1CCC1 the results were Vaccinia inh 12.3 and Vaccinia inh Venus 9.0.
Screening C[C@H](CO)N1C[C@H](C)[C@H](CN(C)Cc2ccccc2F)Oc2ncc(/C=C/c3ccccc3)cc2C1=O returned Vaccinia inh -13.0 and Vaccinia inh Venus -5.8.
`O=C(c1cccc(F)c1)N1CCCCN2[C@H](C1)[C@H](c1ccc(/C=C/c3ccccc3)cc1)[C@@H]2CO` gave Vaccinia inh inconclusive.

The final two compounds of the section before are carried over, then new ones follow:
Screening C[C@H](CO)N1C[C@H](C)[C@H](CN(C)Cc2ccccc2F)Oc2ncc(/C=C/c3ccccc3)cc2C1=O returned Vaccinia inh -13.0 and Vaccinia inh Venus -5.8.
`O=C(c1cccc(F)c1)N1CCCCN2[C@H](C1)[C@H](c1ccc(/C=C/c3ccccc3)cc1)[C@@H]2CO` gave Vaccinia inh inconclusive.
O=C(Nc1ccccc1Cl)N1[C@@H]2CNc3ccccc3[C@@H]2[C@@H]1CO was read as Vaccinia inh -7.9 and Vaccinia inh Venus -2.5.
`COc1ccc(-c2ccc([C@H]3[C@H](C#N)N[C@@H]3CO)cc2)cc1` gave Vaccinia inh 20.5 and Vaccinia inh Venus 9.4.
Screening C[C@H](CO)N1C[C@H](C)[C@@H](CN(C)Cc2ccc3c(c2)OCO3)OCc2ccccc2-c2ccccc2C1=O returned Vaccinia inh -16.3 and Vaccinia inh Venus -13.2.
For CCCN1[C@@H]2c3cccc(=O)n3C[C@@H]2[C@@H](CO)[C@@H]1C(=O)N1CCCCC1 the results were Vaccinia inh -1.8 and Vaccinia inh Venus 2.1.
`C[C@H]1CN([C@@H](C)CO)C(=O)CCCn2nncc2CO[C@@H]1CN(C)Cc1ccc(O)cc1` gave Vaccinia inh 6.8 and Vaccinia inh Venus 6.2.
`C[C@H]1CN([C@@H](C)CO)C(=O)Cc2cc(NS(=O)(=O)c3ccc(F)cc3)ccc2O[C@H]1CN(C)S(C)(=O)=O` gave Vaccinia inh -7.7 and Vaccinia inh Venus 5.7.
COc1ccc(CN2CCC(C)=CC2C)cc1 (stereo not drawn) was read as Vaccinia inh 19.9 and Vaccinia inh Venus 17.9.
For CCCC#Cc1ccc2c(c1)[C@@H]1[C@@H](CCN1C(=O)CC1CC1)[C@@H](CO)N2C the results were Vaccinia inh -7.6 and Vaccinia inh Venus -3.3.
`CCC(=O)N(C)C[C@H]1[C@H](c2ccccc2)[C@@H](CO)N1C(=O)Cc1ccncc1` gave Vaccinia inh 12.4 and Vaccinia inh Venus 5.5.
`C[C@@H](O)C#Cc1cnc2c(c1)C(=O)N([C@@H](C)CO)C[C@H](C)[C@@H](CN(C)Cc1cccc(F)c1)O2` gave Vaccinia inh -3.8 and Vaccinia inh Venus -7.9.
Screening C[C@@H]1CN([C@@H](C)CO)C(=O)c2cc(NC(=O)C3CCCCC3)ccc2O[C@@H]1CN(C)C returned Vaccinia inh -4.5 and Vaccinia inh Venus 3.4.
C[C@@H]1CCCCO[C@H](CN(C)C)[C@H](C)CN([C@H](C)CO)C(=O)c2cc(NC(=O)Cc3ccccc3)ccc2O1 was read as Vaccinia inh -3.4 and Vaccinia inh Venus -3.7.
COc1ccc(NC(=O)N(C)C[C@@H]2Oc3ccc(NC(=O)Cc4ccccc4)cc3CC(=O)N([C@H](C)CO)C[C@H]2C)cc1 was read as Vaccinia inh 14.4 and Vaccinia inh Venus 11.6.
`NC(=O)NCC#Cc1ccc2c(c1)[C@]1(C(=O)N2)[C@H](c2ccc(OCCO)cc2)N2[C@H](c3ccccc3)[C@H](c3ccccc3)OC(=O)[C@H]2[C@@H]1C(=O)O` gave Vaccinia inh 6.6 and Vaccinia inh Venus 4.8.
For C[C@H]1CN([C@@H](C)CO)C(=O)c2cc(NC(=O)C3CCCCC3)ccc2O[C@@H]1CN(C)Cc1ccccc1 the results were Vaccinia inh 8.5 and Vaccinia inh Venus 17.7.
`COc1ccccc1S(=O)(=O)N[C@H]1C=C[C@H](CC(=O)N2CCN(C)CC2)O[C@H]1CO` gave Vaccinia inh 8.3 and Vaccinia inh Venus 10.0.
For COCCNC(=O)C[C@@H]1CC[C@@H]2[C@H](COC[C@@H](O)CN2Cc2cccc(-c3ccncc3)c2)O1 the results were Vaccinia inh -33.9 and Vaccinia inh Venus -26.5.
Screening C[C@@H]1CN([C@H](C)CO)S(=O)(=O)c2ccc(-c3ccncc3)cc2O[C@@H]1CN(C)S(C)(=O)=O returned Vaccinia inh 2.4 and Vaccinia inh Venus -1.4.
`CC(C)C(=O)Nc1ccc2c(c1)C(=O)N(C)[C@@H]1CC[C@@H](CC(=O)NCc3ccccc3)O[C@@H]1CO2` gave Vaccinia inh 5.0 and Vaccinia inh Venus 12.2.
Screening C[C@@H]1CCCCO[C@H](CN(C)C(=O)c2ccccc2)[C@H](C)CN([C@@H](C)CO)C(=O)c2cc(NS(=O)(=O)c3ccccc3)ccc2O1 returned Vaccinia inh 1.9 and Vaccinia inh Venus -3.7.
`COc1ccc(S(=O)(=O)Nc2cccc3c2O[C@H](CN(C)Cc2ccc4c(c2)OCO4)[C@H](C)CN([C@@H](C)CO)C3=O)cc1` gave Vaccinia inh 1.1 and Vaccinia inh Venus 5.6.
C[C@H]1CN([C@@H](C)CO)C(=O)c2cc(-c3ccc(F)cc3)cnc2O[C@@H]1CN(C)Cc1cncnc1 was read as Vaccinia inh -5.3 and Vaccinia inh Venus -8.4.

An excerpt of the results above:
Screening C[C@@H]1CN([C@H](C)CO)S(=O)(=O)c2ccc(-c3ccncc3)cc2O[C@@H]1CN(C)S(C)(=O)=O returned Vaccinia inh 2.4 and Vaccinia inh Venus -1.4.
`CC(C)C(=O)Nc1ccc2c(c1)C(=O)N(C)[C@@H]1CC[C@@H](CC(=O)NCc3ccccc3)O[C@@H]1CO2` gave Vaccinia inh 5.0 and Vaccinia inh Venus 12.2.
Screening C[C@@H]1CCCCO[C@H](CN(C)C(=O)c2ccccc2)[C@H](C)CN([C@@H](C)CO)C(=O)c2cc(NS(=O)(=O)c3ccccc3)ccc2O1 returned Vaccinia inh 1.9 and Vaccinia inh Venus -3.7.
`COc1ccc(S(=O)(=O)Nc2cccc3c2O[C@H](CN(C)Cc2ccc4c(c2)OCO4)[C@H](C)CN([C@@H](C)CO)C3=O)cc1` gave Vaccinia inh 1.1 and Vaccinia inh Venus 5.6.
C[C@H]1CN([C@@H](C)CO)C(=O)c2cc(-c3ccc(F)cc3)cnc2O[C@@H]1CN(C)Cc1cncnc1 was read as Vaccinia inh -5.3 and Vaccinia inh Venus -8.4.
